Bioassay records deposited in PubChem by ICCB-Longwood Screening Facility, Harvard Medical School.
CapD inh = inhibitors of Bacillus anthracis CapD enzyme. 140,000 compounds, 0.23% hits. z-score (concentration not given with the values). purified CapD enzyme, fluorescence intensity read-out; hits give low values; some hits fall short of the stated cut;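 active = z-score under -4 in either of two replicates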;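 note: stock transfer was 100 nL into about 40 µL; score is relative to mean and spread of the plate; one replicate is shown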
AID504770 = growth inhibitors of E. coli YBA685 in a screen for V. cholerae RctB (chromosome II replication) inhibitors; E. coli YBA685 rctB-dependent plasmid, OD600 growth, 3 h; hits give low values; z-score (test concentration not listed); 130,000 compounds, 0.27% hits; AID 504770;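 active = z-score under -2 on both plates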;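 note: wells of about 30 µL received 100 nL stock; score is relative to mean and SD of the test wells; the first replicate is given; strong numbers were not always called active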
An asterisk follows results filed as active; · = not tested or not shown. Compounds were not picked by outcome; overall some 0.41% were active at least once.

Structure	CapD inh	AID504770
COc1cc(-c2[nH]nc3c2C(c2cc(OC)c(OC(C)=O)c(OC)c2)C(C#N)=C(N)O3)cc(OC)c1OC (stereo not drawn)	0.88	·
COc1ccccc1N1CCN(C(=O)CSc2nc3ccccc3c(=O)n2CC2COc3ccccc3O2)CC1 (stereo not drawn)	-2.2	·
CCCCCc1ccc(-c2ccc(Br)cc2)cc1	-0.74	·
O=C1c2cccc3cccc(c23)N1c1ccccc1	·	-0.6
O=C(O)C(Cc1ccccc1)Nc1ncnc2c1oc1ccccc12 (stereo not drawn)	1.5	1.7
Cc1sc2c(c1C)c(=O)[nH]c1nnc(Nc3ccccc3)n12	·	-0.75
Nc1nc(Nc2ccc(Cl)cc2)sc1C(=O)c1ccc(Cl)cc1Cl	-0.025	·
COc1c(C(=O)NCCOc2ccccc2)ccc2ccccc12	2.1	1
O=C(OCC(=O)N1CCCc2ccccc21)c1cc2ccccc2oc1=O	·	2.4
Cn1c2ccc(F)cc2c2nnc(NN)nc21	-0.74	-0.25
CC(C)(CC(=O)O)CC(=O)N1CCN(c2cc(C(F)(F)F)nc3ccccc23)CC1	-0.21	-0.5
CCOC(=S)Nc1cccc(C(F)(F)F)c1	·	-0.15
O=C(Nc1cc(-c2cccs2)nn1-c1ccc(I)cc1)C1CCC1	0.26	-1.1
Cc1ccc(Cn2cc(CCC(=O)N3CCc4ccccc43)c3ccccc32)cc1	0.14	-0.85
COc1cc(C2C(C#N)=C(N)Oc3n[nH]c(-c4ccc(Br)cc4)c32)cc(OC)c1OC(=O)c1ccco1 (stereo not drawn)	-0.21	·
Cc1csc(C(=O)NNC(=O)OCCN2CCN(Cc3cc4ccccc4o3)CC2)c1-n1cccc1	-0.3	·
Cc1cc(C#N)c(SCC(N)=O)nc1-c1ccc(F)cc1	·	-0.65
CCOc1ccc(N(C(C)=O)C2C=CS(=O)(=O)C2)cc1 (stereo not drawn)	0.42	0.3
COC(=O)c1sc(N)c(C(=O)OC)c1COC(=O)c1c(C)noc1C	·	0.55
O=S1(=O)CC(S(=O)(=O)c2cccs2)c2ccccc21 (stereo not drawn)	-0.015	0.35
C#CCN1CC(OCC)=CC1=O	0.49	-0.45
CCNc1cc(N)[n+](CC)c2n[nH]c(/N=C/c3cc(Cl)cc(Cl)c3O)c12	-0.87	1.8
O=C(NCCc1nc2ccccc2[nH]1)c1ccc(F)cc1	·	-0.9
Nc1[nH]nc2nc(N3CCCCC3)nc(-c3ccccc3)c12	-0.62	0.45
O=C(O)CN1C(=O)/C(=C2\SC(=S)N(CCS(=O)(=O)O)C2=O)c2cc(Br)ccc21	-1.9	·
COc1cccc2cc(C(=O)Nc3ccc(Oc4ccc(Cl)cc4)cc3)c(=O)oc12	0.94	·
O=C1OC(c2ccccc2)=N/C1=C\C=C\c1ccccc1	-0.44	1.4
Cc1ccc(CNC(=O)CC2CCCC2)cc1	0.15	0.7
O=C(N/N=C/c1ccccc1Cl)c1cccnc1	-0.15	·
CCCNS(=O)(=O)c1ccc2c(c1)SCC(=O)N2	-0.59	-0.1
CC(=O)Oc1c2c(c[n+](C)c1C)COC(C)(C)OC2	28	-0.45
CC(C(=O)NCc1ccc2c(c1)OCO2)N1CCN(c2ccccc2F)CC1 (stereo not drawn)	·	-1.5
O=C(CSCC(=O)Nc1ccc2nc(SCC(=O)N3CCOCC3)sc2c1)Nc1ccc2ccccc2c1	-0.38	·
COC(=O)c1cn(-c2ccccc2)c(=O)c2ccccc12	0.31	-1.1
c1ccc2oc(-c3csc(NCC4CCCO4)n3)cc2c1 (stereo not drawn)	·	-0.5
CC(C)(CNC(=O)Cc1ccsc1)N1CCOCC1	·	-0.8
CCOC(=O)c1c(SC)nc2c(C(F)(F)F)cccc2c1Oc1ccc(OC)cc1	-0.25	0
N#C/C(=C\c1ccc(/C=C(\C#N)S(=O)(=O)c2ccccc2)cc1)S(=O)(=O)c1ccccc1	1.5	-1.1
O=C(Nc1cccc(-c2cnco2)c1)c1ccc(C(F)(F)F)cc1	-0.85	-0.2
CCCC1=C(C(=O)OCC)C(c2ccc(NC(C)=O)cc2)NC(=O)N1 (stereo not drawn)	6.5	-0.15

Rewritten as labelled records: entries from further up
CCCNS(=O)(=O)c1ccc2c(c1)SCC(=O)N2
  CapD inh = -0.59	AID504770 = -0.1

CC(=O)Oc1c2c(c[n+](C)c1C)COC(C)(C)OC2
  CapD inh = 28	AID504770 = -0.45

CC(C(=O)NCc1ccc2c(c1)OCO2)N1CCN(c2ccccc2F)CC1 (stereo not drawn)
  CapD inh = ·	AID504770 = -1.5

O=C(CSCC(=O)Nc1ccc2nc(SCC(=O)N3CCOCC3)sc2c1)Nc1ccc2ccccc2c1
  CapD inh = -0.38	AID504770 = ·

The results go on.
Structure	CapD inh	AID504770
CCOc1ccccc1NC(=O)c1cc2cc(Br)ccc2oc1=O	-0.33	-0.6
CN(C)c1ccc(C(=O)NCCN2C(=O)S/C(=C\c3ccc4c(c3)OCO4)C2=O)cc1	·	1.1
c1ccc(Sc2ncnc3ccsc23)nc1	0.76	0.05
CCN(C(=O)CSc1ccc(NC(C)=O)cc1)C1CCS(=O)(=O)C1 (stereo not drawn)	·	-0.7
O=C(CSc1nnc(-c2ccc3c(c2)OCO3)o1)N1CCc2ccccc21	·	2.9
CCCN1CCC(NC(=O)c2ccc(F)cc2Cl)CC1	0.025	-0.6
COc1ccc(-c2csc(Nc3c(C)n[nH]c3C)n2)cc1	-0.72	1.1
COc1ccc(Oc2ccccc2OC)cc1	-0.67	0.05
O=C(CSc1nc2sc3c(c2c(=O)[nH]1)CCCC3)NCc1cccs1	·	-0.6
Clc1ccc(-c2ccnc3nc(N4CCOCC4)nn23)cc1Cl	-0.04	·
CCCN(CCC)S(=O)(=O)c1ccc(C(=O)Nc2ccc(F)cc2)cc1	-0.49	·
CCn1cnc2sc(C(=O)N3CCC(=O)CC3)c(C)c2c1=O	-0.21	·
Cc1cc2nc(SCC(=O)NCCN3CCCCC3)[nH]c2cc1C	-0.49	-1.1
Cc1ccc(C(=O)/C(=C/N(C)C)Sc2ccc(C(F)(F)F)cn2)cc1	8.8	-0.8
N#Cc1c(N2CCSCC2)nsc1-c1ccccc1Cl	0.45	0
Cc1cc(=O)[nH]c(-c2ccc(C(N)=O)cc2)n1	-0.46	-0.3
COc1ccc(N/C=C/C(=O)c2cc(Cl)sc2Cl)cc1OC	-2.4	·
O=C(CCC(=O)c1cccs1)OC1CCOC1=O (stereo not drawn)	·	1.9
Cc1c(C(=O)NCc2nnc(SCC(=O)N3N=C(c4cccs4)CC3c3ccc(F)cc3)n2C)cccc1[N+](=O)[O-] (stereo not drawn)	1.1	·
CC1SCC(=O)N(CC(=O)NCc2ccc(F)cc2)C1=O (stereo not drawn)	·	0.1
CCCn1c(=O)n(CC#N)c(=O)c2c1nc(C(F)(F)F)n2CCOC	·	0
CCN=c1scc(-c2ccccc2)n1/N=C/c1ccccc1O	·	-0.65
Cc1nnsc1C(=O)Nc1ccc(-c2cn3c(n2)SCC3)cc1	-1.1	-0.8
CC(C)NC(=O)c1ccc2c(c1)N(Cc1ccccc1F)C(=O)c1ccccc1S2(=O)=O	-0.81	-0.4
CC(C)(C)c1nocc1C(=O)O/N=C(\N)c1ccccn1	0.005	0.35
Cc1ccc(C)c(C(=O)CSc2n[nH]c(-c3ccco3)n2)c1	-0.17	·
COc1ccc(N2C(=O)/C(=C/c3ccc(OCc4ccc(C(=O)O)cc4)c(OC)c3)C(=O)NC2=S)cc1	0.49	·
COC(=O)C(Cc1ccc(Cl)cc1)NC(=O)c1ccccc1COC(=O)c1ccccc1 (stereo not drawn)	-0.34	·
Cc1ccc2nc(Sc3ccccc3)c(/C=C3\SC(=S)N(C)C3=O)c(=O)n2c1	1.3	-0.75
Cc1ccc(S(=O)(=O)CCl)cc1	0.54	0.05
O=c1[nH]nc(SCCS(=O)(=O)c2ccc(F)cc2)n1C1CC1	0.77	0.05
CCc1ccc(-n2c(SCC(=O)NCCc3ccc(OC)c(OC)c3)nc3n[nH]c(C)c3c2=N)cc1	-0.03	·
COc1ccc(C2=C/C(=C/c3ccccc3)C(=O)O2)cc1	0.2	-0.4
COc1cc(C2C(C#N)=C(N)Oc3n[nH]c(-c4ccccc4)c32)cc(OC)c1OC(=O)N1CCOCC1 (stereo not drawn)	-0.21	·
CCOC(=O)c1c(NC(=O)CCC(=O)O)sc(C)c1-c1ccccc1	2.5	0.25
CCOc1cccc2cc(-c3nnc(Nc4cccc(OC)c4)s3)c(=O)oc12	0.51	·
N#CCSc1ncnc2sccc12	·	0
Cc1c(C(c2ccc(OC(=O)c3ccc(Br)cc3)cc2)c2c(C)n(C)n(-c3ccccc3)c2=O)c(=O)n(-c2ccccc2)n1C	-0.075	·
O=S(=O)(c1ccc(Br)cc1)N1CCN(C(c2ccccc2)c2ccc(Cl)cc2)CC1 (stereo not drawn)	-0.32	·
O=S(=O)(Cc1ccccc1)c1ccccc1-c1nnc(-c2ccccc2)o1	0.3	·
CC(=O)N1c2ccccc2C(=O)C1N1CCN(c2cc(C)ccc2C)CC1 (stereo not drawn)	10	0.15
CCOC(=O)c1nc(-c2cccs2)no1	0.32	-0.1
CC(=O)N(c1ccc2oc(=O)sc2c1)S(=O)(=O)c1ccc(C)cc1	-1.1	0.05
O=C(Nc1ccc(S(=O)(=O)N2CCCCC2)cc1)c1ccccn1	·	-1.2
O=C1c2ccccc2C(=O)N2CC3(c4ccccc4)CN1CC(c1ccccc1)(C2)C3=O	-0.085	0.3
CCOC(=O)c1ccc(NC(=O)c2ccccc2NC(=O)c2ccccc2)cc1	0.56	·
CCN(CC)S(=O)(=O)c1cccc(C(=O)N[C@H](C(=O)Nc2ccc3c(c2)OCCO3)C(C)C)c1	·	0.2
COC(=O)c1ccc(C#Cc2ccccc2)o1	23	·
N/C(CN1CCCC1=O)=N\O	·	-0.6
O=C(NCCc1ccccc1Cl)OCCCCCc1ccccc1	0.29	·

(list continues)
Structure	CapD inh	AID504770
CSC(=NCCC1CC1(Cl)Cl)NC#N (stereo not drawn)	-0.73	-0.9
CSc1sc(C(=O)O)c2c1C(=O)CC(C)(C)C2	-0.9	-0.5
CC(=O)O[C@@H]1CC(O[C@@H]2C(C)OC(O[C@@H]3C(C)OC(OC4CC[C@@]5(C)[C@H](CC[C@]6(C)[C@]5(C)C[C@@H](O)[C@]5(C)[C@@H](C7=CC(=O)OC7)CC[C@@]56O)C4)C[C@H]3O)C[C@H]2O)OC(C)[C@H]1OC1OC(CO)[C@@H](O)[C@@H](O)[C@@H]1O (stereo partly drawn)	0	·
CCN(Cc1ccccc1)C(=O)C1CCN(Cc2cc(Br)c(O)c(OC)c2)CC1	·	1.4
C#CC1(O)CC(C)(C)NC(C)(C)C1	0.34	0.4
COc1ccc(COCC(O)CN2CCCC(C)C2)cc1OC (stereo not drawn)	·	1.4
O=C(CCS(=O)(=O)Cc1ccccc1)Nc1nccs1	·	-0.25
COc1ccccc1-c1noc(CCC(=O)N2CCC(c3c[nH]c4ccccc34)(c3c[nH]c4ccccc34)CC2)n1	-0.64	-0.3
O=C(Cn1c(C(=O)NCC2CCCO2)cc2sccc21)c1ccccc1 (stereo not drawn)	·	-0.05
CC(=O)Nc1ccc(Nc2cc(Cl)c(S(=O)(=O)C(F)(F)F)cc2S(=O)(=O)C(F)(F)F)cc1	·	1.3
CCNc1nc(Oc2ccc(OCC)nn2)nc(N2CCOCC2)n1	0.07	-0.7
Cc1ccccc1Nc1cc2ccccc2c(=O)[nH]1	15	-4*
O=C(NCCc1ccccc1)NCCN1CCN(c2ccccc2)CC1	0.14	0.55
O=C(Cc1ccccc1)N1CCN(c2nc3ccccc3o2)CC1	0.045	-0.35
COc1cc(C)ccc1OCC(=O)NC(C)C	·	-0.25
CCSc1ccc2nnc(CCNC(=O)c3ccccc3)n2n1	1.6	-0.3
COC(=O)c1ccc(-n2cccn2)cc1	-0.11	-0.75
N#C/C(=C\C=C\c1ccccc1)c1cccc(C(F)(F)F)c1	-0.61	0.55
CC(C)C(=O)Nc1c(C(N)=O)oc2ccccc12	·	-0.05
O=C(COC(=O)c1ccc2c(c1)OCCO2)Nc1ccc(N2CCOCC2)cc1	·	0.15
CNc1sc2c(O)cc(=O)[nH]c2c1C#N	-1.5	-0.4
COc1cc(/C=C(\C#N)C(=O)OC(C)C)ccc1O	·	-0.3
Cc1ccc(CN(Cc2ccco2)C(=S)Nc2ccccc2C)cc1	0.14	0.4
COc1ccc(NC(=O)CSc2ccc3ccccc3n2)cc1	-0.29	-0.75
CC(=O)N1CCc2cc(S(=O)(=O)C(C)CC(=O)N(C)c3ccc(C)cc3)ccc21 (stereo not drawn)	-0.34	0.3
